# Source: PubChem
# TMEM16A act – TMEM16A chloride channel activators or potentiators, primary screen, cell-based, HTS | HEK293 TMEM16A/YFP-H148Q/I152L, iodide quench fluorescence; stronger effect = lower value | AID 623877, 2012 | B-score at 10 µM | hit rate 0.3% among 340,000;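 active = fluorescence-ratio B-score plate-corrected deviation score at least 3 library SD below zero, with starting fluorescence score within 5 deviations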;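 also: channel opened by trigger with iodide after compound preincubation; score built on the fluorescence ratio of max minus min over baseline; more negative score means more quench and so TMEM16A activation or potentiation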
# ANO1 block – TMEM16A chloride channel inhibitors, primary screen, cell-based, HTS. normalized B-score (activity score, 25-100; higher = stronger inhibition) at 10 µM. HEK293 TMEM16A/YFP iodide influx fluorescence, ionomycin. AID 588511, 2011. hit rate 1.2% among 310,000;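 active = ratio plate-corrected score three or more library SD toward inhibition, starting fluorescence score within five deviations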;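 also: score derived from kinetic fluorescence span divided by baseline fluorescence per well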
# TRPC4 PAM – positive allosteric modulators of TRPC4, primary screen, cell-based, mouse TRPC4beta, HEK293 mu-opioid, Fluo-4 calcium | hit rate 0.42% among 310,000 | B-score at 10 µM | DAMGO EC20, Fluo-4 Ca2+ flux; stronger effect = higher value;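 active = B-score of calcium response area above 5 SD of library B-scores, with initial fluorescence ratio within 5 SD of library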;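 also: B-score of integrated fluorescence ratio over time as area under calcium response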
# DYRK1A inh – rat Dyrk1A kinase inhibitors, primary screen, biochemical, single point, plate reader. Dual specificity tyrosine-phosphorylation-regulated kinase 1A (Rattus norvegicus), Q63470. ADP-Glo luminescence, NFATc1 peptide. inhibition, % at 12.5 µM. hit rate 0.43% among 310,000; in the data active = inhibition above about 50%;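 also: plate controls were vehicle with enzyme for no effect and no enzyme for full effect; many of its hits are not listed in these tables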
# HDAC3 inhib – HDAC3 deacetylase inhibitors, primary screen, biochemical, fluorescence, cell-free homogeneous; Histone deacetylase 3 (Homo sapiens), O15379; recombinant HDAC3, fluorogenic peptide/trypsin coupled; inhibition, % at 8.3 µM; hit rate 0.15% among 320,000; AID 2718, 2010; in the data active = inhibition above about 26%, passing the limit was not always enough
# TRPC4 agonist – activators of mouse TRPC4 channel, primary screen, Fluo4 calcium, HEK293 TRPC4beta/mu-opioid cells; Short transient receptor potential channel 4 (Mus musculus), Q9QUQ5; Fluo4 calcium fluorescence; stronger effect = higher value; B-score at 10 µM; hit rate 0.49% among 310,000; AID 2237, 2010;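 active = B-score above 5 SD of library B-scores, and initial fluorescence ratio not above library mean plus 5 SD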;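 also: positive B-score marks a calcium rise read as TRPC4 activation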
#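 System: HEK293 cells stably co-expressing mouse TRPC4beta and mu-opioid receptor; Schedule: Fluo4 dye loading 45 min at room temperature, 110 s recording; Detection: Fluo4 fluorescence, kinetic; Evaluation: B-scored integrated calcium fluorescence ratio; Controls: buffer (low) and maximal DAMGO (high).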
# * = called active by the depositor; i = inactive; · = not tested or not shown. Some of the compounds tested. The share of hits here may be higher or lower than overall.
# Below each SMILES – ANO1 block	TRPC4 PAM	HDAC3 inhib	TMEM16A act	TRPC4 agonist	DYRK1A inh
[1] C/C(=N\NC(=S)Nc1cccc(C)c1)c1cc2ccccc2o1
    i	i	-9.0	i	i	0.1
[2] COc1ccc(CNCc2ccc3c(c2)OCO3)cc1Br
    i	i	5.3	i	43*	-1.3
[3] O=C(O)COCCN1CCN([C@H](c2ccccc2)c2ccc(Cl)cc2)CC1
    i	i	-3.4	i	i	1.6
[4] O=C(C(c1ccccc1)c1ccccc1)N1CCC(c2nc(-c3ccccc3Cl)no2)CC1
    i	i	-1.7	i	i	-2.7
[5] Cc1ccc(OCCCCNC(C)c2ccccc2)c(C)c1 (stereo not given)
    i	i	-3.0	i	i	·
[6] CCOc1ccc(S(=O)(=O)N2CCN(Cc3ccc4c(c3)OCO4)CC2)cc1C
    i	i	-3.2	i	i	0.4
[7] Cc1ccc(C2C3CN(C(C)C)CC=C3C(C#N)=C(N)C2(C#N)C#N)cc1 (stereo not given)
    i	i	-19.1	i	i	20.2
[8] COc1ccc(C)cc1NC(=O)n1ncc2c(C)cccc21
    i	i	4.5	i	i	-0.1

# Entries listed above marked active in TRPC4 agonist.
No.	SMILES	TRPC4 PAM	HDAC3 inhib	TMEM16A act	TRPC4 agonist	DYRK1A inh
2	COc1ccc(CNCc2ccc3c(c2)OCO3)cc1Br	i	5.3	i	43*	-1.3

# Part of the list above, with one line to a screen:
6: CCOc1ccc(S(=O)(=O)N2CCN(Cc3ccc4c(c3)OCO4)CC2)cc1C
7: Cc1ccc(C2C3CN(C(C)C)CC=C3C(C#N)=C(N)C2(C#N)C#N)cc1 (stereo not given)

assay / entry	6	7
ANO1 block	i	i
TRPC4 PAM	i	i
HDAC3 inhib	-3.2	-19.1
TMEM16A act	i	i
TRPC4 agonist	i	i
DYRK1A inh	0.4	20.2

# Whole records, quoted from the list. Order of screens: ANO1 block | TRPC4 PAM | HDAC3 inhib | TMEM16A act | TRPC4 agonist | DYRK1A inh
# Entry for `O=C(C(c1ccccc1)c1ccccc1)N1CCC(c2nc(-c3ccccc3Cl)no2)CC1` : i | i | -1.7 | i | i | -2.7
# Entry for `COc1ccc(CNCc2ccc3c(c2)OCO3)cc1Br` : i | i | 5.3 | i | 43* | -1.3
# Entry for `C/C(=N\NC(=S)Nc1cccc(C)c1)c1cc2ccccc2o1` : i | i | -9.0 | i | i | 0.1
# Entry for `CCOc1ccc(S(=O)(=O)N2CCN(Cc3ccc4c(c3)OCO4)CC2)cc1C` : i | i | -3.2 | i | i | 0.4
